Compound activity deposited in PubChem BioAssay by Fisher Drug Discovery Resource Center.
NPYLR7 ag – agonists of mosquito NPYLR7 receptor, primary screen, cell-based, Aedes aegypti, calcium fluorescence, mosquito biting behavior | Aedes aegypti neuropeptide Y-like receptor 7 (NPYLR7) | HEK293T NPYLR7/Galpha15, GCaMP6s calcium fluorescence | activation, % at 10 µM | hit rate 0.15% among 270,000; in the data active means activation above about 40%;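 further: 0% = vehicle and 100% = reference agonist at the receptor; some compounds past the cut are filed as inactive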
NPYLR7 ag max-min – further read-out of NPYLR7 ag, marked with its call; activation, %; measured here: Max-Min RFU normalised activation; some inactives read as strong as hits;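 span of the calcium signal over five minutes; 0% = vehicle and 100% = native peptide agonist; compound fluorescence can raise it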
* marks the source's active call; other numbers are inactive results; & = joins results of further samples. A portion of the library (hit frequency here may not be typical).

SMILES	NPYLR7 ag	NPYLR7 ag max-min
CCc1nc2ccc(C(=O)N(C)C(C)C)cn2c1N(CCC(C)C)CCN(C)C	-2	-10
Cc1onc(-c2ccccc2Cl)c1C(=O)Nc1ccc(F)c([N+](=O)[O-])c1	2	1
S=C1NCCNC(=S)NCCOCCOCCN1	-5	-3
CC(C)Cc1cc(C(=O)NCc2cccnc2-n2ccnc2)on1	12	11
Cn1nc(-c2ccccn2)c2c1NC(=O)CC2c1cccc2nsnc12 (stereo unspecified)	-7	-10
COc1ccc(CCOC(=O)C2CCCCN2C(=O)/C=C/c2ccc(C)cc2)cc1OC (stereo unspecified)	20	9
CN1CCN(C(C)(C)C(=O)Nc2ccc(F)c(Cl)c2)CC1	-3	-2
CC1CCN(C2=C(c3c(-c4ccccc4)[nH]n(Cc4ccccc4)c3=O)C(=O)N(C(C)C)C2=O)CC1	14	7
O=C(NC1CCCCC1)C1CC=CCC1C(=O)N1CCN(c2ccccn2)CC1 (stereo unspecified)	8	0
CC(=O)Nc1cccc(C2=NN(C(=O)c3ccco3)C(c3cccs3)C2)c1 (stereo unspecified)	2	-1
C[C@@H]1CN(Cc2ccc3c(c2)CN(C(=O)CN2CCC(c4ccccc4)CC2)CCO3)C[C@H](C)O1	4	0
COC(=O)c1ccc(N2C(=O)CC(N3CCN(c4ncccn4)CC3)C2=O)cc1 (stereo unspecified)	1	-1
CCOC(=O)c1cc2c(=O)n3cccc(C)c3nc2n(CCCOC)c1=N	1	6
O=C(NCCc1ccccn1)C(C1CCCC1)N1CCN(C(=O)c2ccc(Cl)c(Cl)c2)CC1 (stereo unspecified)	-7	1
O=C(Cc1cccs1)Nc1cccn(Cc2ccccc2)c1=O	-26	-24
Brc1cc2c(cc1CSc1nnnn1-c1ccccc1)OCCO2	9	7
COc1cccc(-c2cc(C(=O)NCCN3CCOCC3)c(C)n2-c2ccc(F)cc2)c1	3	11
O=C(NC1CC1)C1CSC(c2cccs2)=N1 (stereo unspecified)	7	0
OCc1cccc(-n2ccnc2-c2ccnn2-c2ccccc2)c1	17	6
Cn1cc(-c2cc3cnc(Nc4cccc(NS(C)(=O)=O)c4)cc3n2Cc2ccccc2)cn1	-15	-16
O=C(O)c1coc2c(F)c(F)c(F)cc2c1=O	4	7
NCCc1nc(NCCc2nc3c(s2)CCC3)c2ccccc2n1	4	2
O=C(N/N=C\c1ccc(-c2ccccc2[N+](=O)[O-])o1)c1cccc([N+](=O)[O-])c1	-1	-3
CC(C)(C)CC(=O)N(CC(=O)N(CCc1c[nH]c2ccccc12)Cc1ccc(C(F)(F)F)cc1)C1CC1	-5	0
COc1cccc(CSc2nnc(CNC(=O)NC34CC5CC(CC(C5)C3)C4)n2-c2ccc(C)cc2)c1	21	27

Single records, as listed above. Values in the order: NPYLR7 ag, NPYLR7 ag max-min
CCc1nc2ccc(C(=O)N(C)C(C)C)cn2c1N(CCC(C)C)CCN(C)C reads -2, -10
O=C(NCCc1ccccn1)C(C1CCCC1)N1CCN(C(=O)c2ccc(Cl)c(Cl)c2)CC1 (stereo unspecified) reads -7, 1
CCOC(=O)c1cc2c(=O)n3cccc(C)c3nc2n(CCCOC)c1=N reads 1, 6
O=C(O)c1coc2c(F)c(F)c(F)cc2c1=O reads 4, 7
OCc1cccc(-n2ccnc2-c2ccnn2-c2ccccc2)c1 reads 17, 6

Not a retest: entries from further up.
SMILES	NPYLR7 ag	NPYLR7 ag max-min
CC(C)(C)CC(=O)N(CC(=O)N(CCc1c[nH]c2ccccc12)Cc1ccc(C(F)(F)F)cc1)C1CC1	-5	0
COc1cccc(CSc2nnc(CNC(=O)NC34CC5CC(CC(C5)C3)C4)n2-c2ccc(C)cc2)c1	21	27

Next part.
SMILES	NPYLR7 ag	NPYLR7 ag max-min
CCCC(NC(=O)c1ccc(COC)o1)c1ccccc1 (stereo unspecified)	-5	-7
O=C(O)c1cc2c(O)cccc2[nH]1	-3	5
O=S1(=O)CCC(n2nnnc2-c2ccc(Cl)cc2)C1 (stereo unspecified)	-1	-1
c1ccc(CNc2cc(-c3ccc4c(c3)CNCC4)c3cc[nH]c3n2)nc1	6	5
Cc1cccc(-c2nnc(NC(=O)C(NC(=O)c3ccc(Cl)cc3Cl)C(C)C)s2)c1 (stereo unspecified)	13	2
CCc1cccc(NC(=O)C2Cc3ccccc3C(=O)O2)c1 (stereo unspecified)	1	-3
O=C(COc1ccc(Cl)cc1)Nc1ccc2c(c1)CN(S(=O)(=O)c1cccs1)CC2	10	4
O=C(OCC(=O)N1CCc2ccccc2C1)C1CCCN1C(=O)c1cccs1 (stereo unspecified)	-2	-3
CCOCc1c(C(=O)N2CCN(C(=O)C3CC3)CC2)oc2ccccc12	1	0
CC1CCC2(CC1)N=C(c1ccccc1)C(=S)N2 (stereo unspecified)	12	5
O=C(c1cccnc1)N1CCN(C(c2ccccc2)c2ccc(F)cc2)CC1 (stereo unspecified)	4	10
COC(=O)CC(C)C(=O)NC(C)C(C)(C)C (stereo unspecified)	18	6
CCc1cc2c(=O)[nH]c(C3CSCCS3)nc2s1 (stereo unspecified)	-24	-27
Cc1ccc(S(=O)(=O)NN2CCOCC2)s1	2	-2
CCNCCN1C(=O)CSC1c1ccsc1 (stereo unspecified)	-2	-7
Cc1ccc(S(=O)(=O)NC(C(=O)NC2CC2)C(C)C)cc1 (stereo unspecified)	3	1
CS(=O)(=O)N1CCC(C(=O)N(Cc2cccnc2)c2nc3ccccc3s2)CC1	2	1
CCOC(=O)c1c(C)nsc1NC(=O)C1(C)CCN1C(=O)CC (stereo unspecified)	-2	-2
CCc1nc2ccc(C(=O)N3CCN(C(C)=O)CC3)cn2c1N(CC)C(=O)NCCc1ccccc1	-15	-18
O=C(CCN1C(=O)c2cccc([N+](=O)[O-])c2C1=O)Nc1ccccc1Cl	-7	-11
CCS(=O)(=O)Oc1cccc(CN(CC(C)C)C(=O)c2ccccc2Br)c1	-6	4
Cc1sc(NC(=O)CCN2C(=O)C(C)Oc3ccccc32)nc1-c1ccc(F)cc1 (stereo unspecified)	-2	-3
COCCN(CCOC)C(=O)c1c(-c2c(F)cccc2Cl)noc1C	-1	-6
COC(=O)CN1CCC(NC2CCN(c3cccc(C)c3C)CC2)CC1	2	16
CCC(=O)N=c1sc2ccccc2n1-c1ccccc1	0	-2
Further results:
SMILES	NPYLR7 ag	NPYLR7 ag max-min
O=c1c2cccnc2ncn1CC(O)c1ccccc1 (stereo unspecified)	1	-1
O=C(NCc1ccccc1F)c1cn(-c2cc(N3CCOCC3)ncn2)cn1	-9	-10
CN(C)C(=O)c1cccc(NC(=O)C2(NC(=O)OCc3ccccc3)CCCC2)c1	2	14
Cc1cccc(C)c1OCC(=O)N=Nc1c(O)[nH]c2ccccc12	0	-6
COC(=O)c1ccc2c(=O)n(Cc3ccc(C(=O)NCCN4CCC(C)CC4)cc3)c(=S)[nH]c2c1	4	1
COc1ccccc1CNc1nc(NCCN2CCNC2=O)c2sccc2n1	2	-1
COC(=O)c1cc2c(cc1Cl)SC(Nc1ccccc1)=NS2(=O)=O	7	1
CCC(C)NC(=O)c1cc(NC(=O)Nc2cccc(C)c2)ccc1N1CCN(c2ccccc2OC)CC1 (stereo unspecified)	28	25
COc1ccc2c(-c3ccccc3)c(C(=O)NC(C)C(C)C)oc2c1 (stereo unspecified)	4	467
O=C(NC1CCN(Cc2ccccc2)C1)c1cnc2c(cnn2Cc2ccccc2)c1 (stereo unspecified)	0	-1
CCOc1ccccc1CNC(=O)c1ccc(-c2cc(-c3ccc(Cl)cc3Cl)[nH]n2)cc1	32	17
Cc1ccccc1C(=O)Nc1c2c(nn1CC(=O)NCCc1ccccc1)CSC2	-4	4
CC(C)n1nccc1NC(=NC1CC1)c1ccc(F)cc1	-2	-3
O=C(c1cn2cc(Cl)ccc2n1)N1C[C@H]2C[C@H](O)[C@@H](O)C[C@H]2C1	2	0
O=C(NCc1nnc2ccccn12)c1ccccc1F	5	1
CNC(=O)c1ccc(/C=C/C(=O)OC2C3CCCC2CN(Cc2ccccc2)C3)cc1 (stereo unspecified)	7	15
O=C1NCCCCC1SCc1cccc(C(=O)N2CCCCC2)c1 (stereo unspecified)	-4&10	32&9
COc1cccc2cc(C(=O)Nc3cccc4ccccc34)c(=N)oc12	-7	-10
O=C1NC(=O)c2ccc([N+](=O)[O-])c3cccc1c23	4	2
N#Cc1c(Cl)cccc1NCC1CN(Cc2ccccc2)CCO1 (stereo unspecified)	3	4
CC(NC(=O)c1cccc2ccnn12)c1cn2ccsc2n1 (stereo unspecified)	24	9
CC(NC(=O)Cn1cnc([N+](=O)[O-])n1)c1ccccc1 (stereo unspecified)	-9	-17
CC1c2ccsc2CCN1CC(=O)Nc1ccc(F)c(F)c1 (stereo unspecified)	1	0
O=C(c1cc(-c2ccccc2F)nc2cc(-c3ccccc3)nn12)N1CCN(C/C=C/c2ccccc2)CC1	3	1
Cc1ccc(C2c3ccsc3CCN2C(=O)CN(C(=O)c2ccc(C(F)(F)F)cc2)C2CC2)cc1 (stereo unspecified)	23	21

The list goes on, starting with the last three of the part before.
SMILES	NPYLR7 ag	NPYLR7 ag max-min
CC1c2ccsc2CCN1CC(=O)Nc1ccc(F)c(F)c1 (stereo unspecified)	1	0
O=C(c1cc(-c2ccccc2F)nc2cc(-c3ccccc3)nn12)N1CCN(C/C=C/c2ccccc2)CC1	3	1
Cc1ccc(C2c3ccsc3CCN2C(=O)CN(C(=O)c2ccc(C(F)(F)F)cc2)C2CC2)cc1 (stereo unspecified)	23	21
CCn1cc(C(=O)NCCOc2ccc(C(F)(F)F)cn2)cn1	0	1
COCCN(Cc1cnc(SC)nc1)CC1CCCN(C2Cc3ccccc3C2)C1 (stereo unspecified)	9	6
CN(Cc1cc2n(n1)CCCNC2)Cc1nc2ccccc2s1	-3	-10
COc1ccc2c(c1)CCc1cc(C(=O)NC(C)c3c(C)nn(C)c3C)sc1-2 (stereo unspecified)	3	11
COCc1ccc(CN2CCCC(CNS(=O)(=O)c3ccc(OC)cc3)C2)o1 (stereo unspecified)	20	9
Cc1cc(CNC(=O)Nc2ccccn2)ccc1N(C)C	-16	-24
O=C(NCCC12CC3CC(CC(C3)C1)C2)c1ncc(Cl)c(Cl)c1Cl	10	17
C=CCN(Cc1nccn1Cc1ccccc1F)C(=O)C1CCCC1	-11	2
CCC(CO)N(Cc1ccsc1)Cc1cnc2ccccc2c1 (stereo unspecified)	1	0
O=C(CCn1cc(Cl)cn1)N1CCc2c(ncnc2N2CCOCC2)C1	1	2
COc1ccc(NC(=O)N2CCC3(CC2)C(=O)N(CC(=O)NCCc2ccccc2OC)CN3c2ccccc2)c(OC)c1	20	22
O=C(NNC1c2ccccc2-c2ccccc21)c1ccccc1	-3	-1
Cc1ccc([N+](=O)[O-])cc1N=P(c1ccncc1)(N1CCCC1)C(C)(C)C (stereo unspecified)	1	-1
CCNC(=S)NN=CC1=CCC2CC1C2(C)C (stereo unspecified)	-8	-8
COc1ccc(S(=O)(=O)N(C(C)=O)c2ccc3oc(C)c(C(C)=O)c3c2)cc1	1	-1
Cc1ccc(Nc2nc(N3CCN(c4ccc(F)cc4)CC3)nc3nccnc23)c(C)c1	3	2
CCOC(=O)c1c(C)c(C(=O)C(C)N(C)S(=O)(=O)c2cc(Cl)ccc2Cl)c(C)n1C (stereo unspecified)	23	24
Nc1nnnn1/N=C\c1ccccc1OCc1ccc(Cl)c(Cl)c1	-10	-18
C[C@H]1[C@H](C)CC[C@]2(C(=O)O)CC[C@]3(C)C(=CC[C@@H]4[C@@]5(C)CC[C@H](O)C(C)(C)[C@@H]5CC[C@]43C)[C@H]12	0	-2
CC(=O)Cn1c(=O)c2c(nc3n(Cc4ccco4)c(C)c(C)n23)n(C)c1=O	1	0
CC1=C[C@@H](CC#N)[C@H](C(C)C)C[C@H]1CC(=O)N1CCN(c2cnccn2)CC1	-5	-12
CC(C)(C)n1ncc2c(=O)n(NC(=O)c3cc(C(F)(F)F)cc(C(F)(F)F)c3)cnc21	2	1
O=C(CN1N=NC2C(=O)N(c3ccc(Br)cc3)C(=O)C21)Nc1ccc(F)cc1F (stereo unspecified)	10	2
CC(C(=O)NCc1ccccc1)S(=O)Cc1ccccc1Cl (stereo unspecified)	3	1
Clc1ccc(OCCSc2nc3ccccc3[nH]2)cc1	3	5

Next part, overlapping the part above by 3 compounds.
SMILES	NPYLR7 ag	NPYLR7 ag max-min
O=C(CN1N=NC2C(=O)N(c3ccc(Br)cc3)C(=O)C21)Nc1ccc(F)cc1F (stereo unspecified)	10	2
CC(C(=O)NCc1ccccc1)S(=O)Cc1ccccc1Cl (stereo unspecified)	3	1
Clc1ccc(OCCSc2nc3ccccc3[nH]2)cc1	3	5
N#CCSC1=Nc2ccccc2C2=NC(Cc3c[nH]c4ccccc34)C(=O)N12 (stereo unspecified)	3	1
C=CCCC(O)CN(CC=C)CC1CC(c2ccc(Cl)cc2)=NO1 (stereo unspecified)	-3	-3
Cn1c(=NC(=O)c2ccc(Br)s2)sc2cc(S(C)(=O)=O)ccc21	1	5
C=CCN1C(=O)NC(c2ccsc2)C2=C1CN(CCc1ccccn1)C2=O (stereo unspecified)	28	24
CC(=O)Oc1ccccc1Cn1c(C)c(C(=O)NCCC#N)sc1=O	11	2
Cc1ccc(-c2cc3c(SCC(=O)NCc4ccc(F)cc4)nccn3n2)cc1	-1	-3
CCCN(CC(=O)N(CCc1ccc(OC)c(OC)c1)Cc1cccs1)C(=O)c1ccc(-c2ccccc2)cc1	-4	4
CC1(C(=O)NCc2ccccn2)CCN1Cc1ccccc1Cl (stereo unspecified)	10	2
COc1ccccc1-c1cc(C(=O)NC(C)C(C)C)n2nc(-c3ccccc3)cc2n1 (stereo unspecified)	14	16
Cc1ccc(NC(=O)N(Cc2cccc(OS(=O)(=O)c3cccc(C(F)(F)F)c3)c2)Cc2ccco2)cc1Cl	-3	9
N#Cc1ccccc1/C=C/C(=O)Nc1ccn(Cc2ccccn2)n1	-7	-7
CCCOC(=O)C1=C(C)NC2=C(C(=O)CC(c3ccccc3)C2)C1c1ccc(O)c(OCC)c1 (stereo unspecified)	0	0
